# Bioassay records (PubChem BioAssay)
# HIV Env fusion = inhibitors of HIV Env-mediated cell fusion; HeLa-JRFL Env/CEM21 cell fusion, luciferase; inhibition, % at 12.3 µM; 360,000 compounds, 1.1% hits; AID 651610;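 active = mean replicate inhibition score of at least 50 and every replicate individually at or above 50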;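 also: 0% = plate neutral controls and 100% = maraviroc near 300 nM; one replicate is shown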
# UUG fidelity = modulators of start codon recognition fidelity in yeast | S. cerevisiae UUG-firefly luciferase reporter, luminescence/redox ratio | activity score, % at 18.7 µM | 350,000 compounds, 0.13% hits;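 active = replicate mean at a twofold rise or more, about +100% in these data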;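 also: firefly luciferase made from a UUG start codon reports start codon fidelity; reporter light over untreated wells divided by growth signal over untreated wells; some hits fall short of that in this replicate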
# * = called active by the depositor; [ ] = dose if it differs, or a comment. Not all compounds are listed; rates above refer to the full screens.
SMILES,HIV Env fusion,UUG fidelity
C/C=C/c1cnc2c(c1)C(=O)N([C@@H](C)CO)C[C@@H](C)[C@H](CN(C)S(=O)(=O)c1ccccc1)O2,12[16.7 µM],-6
Cc1noc(C)c1S(=O)(=O)Nc1ccc2c(c1)C(=O)N([C@H](C)CO)C[C@@H](C)[C@H](CN(C)CC1CCCCC1)O2,-5[16.7 µM],-11
C[C@@H]1CN([C@@H](C)CO)C(=O)c2cccc(NS(C)(=O)=O)c2O[C@H]1CN(C)C(=O)Nc1ccc2c(c1)OCO2,-7[16.7 µM],8
CCC(=O)N(C)C[C@H]1Oc2cc(C#Cc3ccncc3)ccc2S(=O)(=O)N([C@H](C)CO)C[C@H]1C,-92[16.7 µM],79
C[C@@H]1CN([C@@H](C)CO)S(=O)(=O)c2ccc(-c3ccncc3)cc2O[C@@H]1CN(C)Cc1cccnc1,-12[16.7 µM],-10
COCC(=O)Nc1ccc2c(c1)C(=O)N(C)[C@@H]1CC[C@H](CC(=O)Nc3cn(C)nc3C)O[C@@H]1CO2,-6[16.7 µM],-12
Cc1noc(C)c1NC(=O)Nc1ccc2c(c1)C(=O)N([C@H](C)CO)C[C@H](C)[C@@H](CN(C)Cc1ccc(Cl)c(Cl)c1)OCCCC[C@H](C)O2,14[16.7 µM],7
Cc1noc(C)c1NC(=O)Nc1cccc2c1O[C@@H](CN(C)C(=O)NC(C)C)[C@H](C)CN([C@H](C)CO)C2=O,-23[16.7 µM],-10
CCCNC(=O)N(C)C[C@@H]1Oc2ncc(C#CC3(O)CCCC3)cc2C(=O)N([C@H](C)CO)C[C@@H]1C,-13[16.7 µM],6
CCCNC(=O)C[C@H]1C[C@@H]2c3cc(NC(=O)Nc4ccc(F)cc4)ccc3O[C@@H]2[C@H](CO)O1,5[16.7 µM],-17
O=C(Nc1ccc(Cl)cc1)N[C@H]1CC[C@@H](CCn2cc(Cc3ccccc3)nn2)O[C@H]1CO,13[16.7 µM],-7
C[C@H]1CN([C@@H](C)CO)S(=O)(=O)c2ccc(/C=C/c3ccccc3)cc2O[C@H]1CN(C)C(=O)c1ccccc1,17[16.7 µM],-3
C[C@@H]1CCCCO[C@@H](CN(C)S(=O)(=O)c2cccs2)[C@H](C)CN([C@H](C)CO)C(=O)c2cc(NS(=O)(=O)c3ccc(Cl)cc3)ccc2O1,-5[16.7 µM],11
C[C@H](CO)N1C[C@H](C)[C@@H](CN(C)C(=O)C2CC2)Oc2cc(C#CC3CCCC3)ccc2S1(=O)=O,-5[16.7 µM],-3
CCC(=O)N(C)C[C@@H]1Oc2cc(-c3cccc(OC)c3)ccc2S(=O)(=O)N([C@@H](C)CO)C[C@@H]1C,5[16.7 µM],10
C[C@@H]1CN([C@H](C)CO)C(=O)c2cc(NC(=O)Nc3cccc4ccccc34)ccc2O[C@H]1CN(C)C(=O)Nc1ccc2c(c1)OCO2,-8[16.7 µM],-11
CNC(=O)C[C@@H]1CC[C@H]2[C@@H](COc3ccc(NS(=O)(=O)c4ccc(F)cc4)cc3C(=O)N2C)O1,12[16.7 µM],3
C[C@H]1CN([C@@H](C)CO)C(=O)c2cc(C#CCN(C)C)cnc2O[C@H]1CN(C)Cc1ccc2c(c1)OCO2,-11[16.7 µM],-3
C[C@H](CO)N1C[C@H](C)[C@H](CN(C)C(=O)Nc2ccc(C(F)(F)F)cc2)Oc2ccc(NC(=O)Nc3ccc4c(c3)OCO4)cc2C1=O,4[16.7 µM],-11
CNC[C@@H]1Oc2ccc(NS(=O)(=O)c3c(C)noc3C)cc2CC(=O)N([C@H](C)CO)C[C@@H]1C,-8[16.7 µM],5
COc1ccc(CNC(=O)C[C@H]2CC[C@H](NC(=O)c3ccc4c(c3)OCO4)[C@@H](CO)O2)cc1,-11[16.7 µM],-7
C[C@@H]1CN([C@H](C)CO)C(=O)c2cc(C3=CCCCC3)cnc2O[C@H]1CN(C)Cc1ccccn1,-5[16.7 µM],-14
O=C(C[C@@H]1CC[C@@H](NS(=O)(=O)c2ccc(F)cc2)[C@@H](CO)O1)NCCc1ccncc1,2[16.7 µM],-14
C[C@@H]1CN([C@H](C)CO)S(=O)(=O)c2ccc(C#C[C@@H](C)O)cc2O[C@@H]1CN(C)Cc1ccccc1,-5[16.7 µM],1
CN1CCN(C(=O)C[C@@H]2C[C@H]3c4cc(NC(=O)NC5CCCC5)ccc4O[C@H]3[C@H](CO)O2)CC1,-17[16.7 µM],-5
C[C@H](CO)N1C[C@H](C)[C@@H](CN(C)S(=O)(=O)c2ccc(Cl)cc2)OCCCC[C@H](C)Oc2ccc(NS(=O)(=O)c3ccc(Cl)cc3)cc2C1=O,-48[16.7 µM],-16
C[C@@H]1CN([C@@H](C)CO)C(=O)Cc2cc(NC(=O)C3CCCCC3)ccc2O[C@@H]1CN(C)C(=O)Nc1ccccc1,11[16.7 µM],16
C[C@@H]1CCCCO[C@H](CN(C)Cc2ccc(C(F)(F)F)cc2)[C@@H](C)CN([C@H](C)CO)C(=O)c2cc(NC(=O)Nc3ccc(F)cc3)ccc2O1,0[16.7 µM],11
COc1ccccc1-c1cnc2c(c1)C(=O)N([C@@H](C)CO)C[C@@H](C)[C@H](CN(C)C(C)=O)O2,-9[16.7 µM],-7
C[C@@H]1CN([C@@H](C)CO)C(=O)c2cc(NC(=O)C3CCCCC3)ccc2O[C@@H]1CN(C)CC1CCCCC1,4[16.7 µM],16
C[C@H](CO)N1C[C@H](C)[C@H](CN(C)C(=O)C2CCCCC2)OCCCC[C@H](C)Oc2ccc(NS(=O)(=O)c3ccc(Cl)cc3)cc2C1=O,-135[16.7 µM],-14
CC(C)NC(=O)N(C)C[C@H]1Oc2ccc(NC(=O)Nc3ccccc3)cc2C(=O)N([C@@H](C)CO)C[C@H]1C,-7[16.7 µM],-11
Cc1ccc(S(=O)(=O)N(C)C[C@H]2OCCCC[C@@H](C)Oc3ccc(NC(=O)c4ccncc4)cc3C(=O)N([C@@H](C)CO)C[C@@H]2C)cc1,-54[16.7 µM],-2
COc1cccc(S(=O)(=O)Nc2ccc3c(c2)[C@H]2C[C@@H](CC(=O)NCc4cccc(F)c4)O[C@H](CO)[C@H]2O3)c1,-1[16.7 µM],23
O=C(C[C@@H]1CC[C@H](NS(=O)(=O)c2cccc(F)c2)[C@@H](CO)O1)NCc1ccc2c(c1)OCO2,-6[16.7 µM],-10
Cc1noc(C)c1S(=O)(=O)N(C)C[C@H]1OCCCC[C@H](C)Oc2ccc(NS(=O)(=O)c3cn(C)cn3)cc2C(=O)N([C@@H](C)CO)C[C@@H]1C,-5[16.7 µM],8
COc1ccc(C#Cc2cnc3c(c2)C(=O)N([C@H](C)CO)C[C@H](C)[C@H](CN(C)S(C)(=O)=O)O3)cc1OC,6[16.7 µM],-5
COc1ccc(NC(=O)Nc2cccc3c2O[C@@H](CN(C)Cc2ccc(C(F)(F)F)cc2)[C@@H](C)CN([C@@H](C)CO)C3=O)cc1,12[16.7 µM],13
C/C=C/c1ccc([C@H]2[C@@H](CO)N(C(=O)Cc3ccccn3)[C@H]2C#N)cc1,10[16.7 µM],5
CC(C)NC(=O)Nc1ccc2c(c1)C(=O)N([C@@H](C)CO)C[C@@H](C)[C@@H](CN(C)C(=O)Nc1ccc(F)cc1)OCCCC[C@@H](C)O2,80*[16.7 µM],-6
C[C@@H]1CN([C@@H](C)CO)C(=O)c2cc(NC(=O)CCCN(C)C)ccc2O[C@@H](C)CCCCO[C@@H]1CN(C)C(=O)NC1CCCCC1,-13[16.7 µM],19
C[C@@H]1CN([C@@H](C)CO)C(=O)c2cccc(NS(=O)(=O)c3ccc(Cl)cc3)c2O[C@@H]1CN(C)S(=O)(=O)c1cn(C)cn1,-17[16.7 µM],-8
C[C@@H]1CN([C@H](C)CO)C(=O)Cc2cc(NC(=O)CCN3CCOCC3)ccc2O[C@H]1CN(C)S(=O)(=O)c1cn(C)cn1,-25[16.7 µM],2
C[C@@H]1CN([C@H](C)CO)S(=O)(=O)c2ccc(-c3ccncc3)cc2O[C@@H]1CN(C)Cc1cncnc1,-21[16.7 µM],-10
C[C@@H]1CN([C@@H](C)CO)C(=O)c2cc(NC(=O)Nc3cccc4ccccc34)ccc2O[C@@H]1CN(C)C,12[16.7 µM],-2
Cc1ccc(S(=O)(=O)Nc2ccc3c(c2)C(=O)N([C@H](C)CO)C[C@H](C)[C@@H](CN(C)C(=O)Nc2c(C)noc2C)OCCCC[C@@H](C)O3)cc1,-3[16.7 µM],-6
C[C@@H]1CN([C@H](C)CO)C(=O)c2cc(NS(=O)(=O)c3ccc(Cl)cc3)ccc2O[C@@H]1CN(C)Cc1ccc(C(F)(F)F)cc1,19[16.7 µM],2
C[C@@H]1CN([C@@H](C)CO)C(=O)c2cc(NC(=O)NC3CCCCC3)ccc2O[C@@H](C)CCCCO[C@@H]1CN(C)C(=O)CCCN(C)C,-4[16.7 µM],8
CCC(=O)N[C@@H]1C=C[C@@H](CC(=O)NCc2cc(F)cc(F)c2)O[C@@H]1CO,-7[16.7 µM],1
CCCC#Cc1cnc2c(c1)C(=O)N([C@@H](C)CO)C[C@@H](C)[C@@H](CN(C)Cc1ccncc1)O2,-6[16.7 µM],-9
CC(C)C#Cc1ccc2c(c1)O[C@H](CN(C)C(=O)c1cccc(F)c1)[C@@H](C)CN([C@@H](C)CO)S2(=O)=O,14[16.7 µM],7
CC(C)CC#Cc1cnc2c(c1)C(=O)N([C@@H](C)CO)C[C@H](C)[C@H](CN(C)C(=O)c1ccc3c(c1)OCO3)O2,4[16.7 µM],26
C[C@@H]1CCCCO[C@H](CN(C)Cc2ccc3c(c2)OCO3)[C@@H](C)CN([C@@H](C)CO)C(=O)c2cc(NC(=O)CCC(F)(F)F)ccc2O1,-37[16.7 µM],5
C[C@@H]1CN([C@H](C)CO)C(=O)c2cccc(NC(=O)c3cnccn3)c2O[C@@H]1CN(C)S(=O)(=O)c1cccs1,-7[16.7 µM],-6
CCCC#Cc1ccc2c(c1)O[C@@H](CN(C)Cc1cccnc1)[C@H](C)CN([C@H](C)CO)S2(=O)=O,17[16.7 µM],-9
C[C@@H]1CN([C@H](C)CO)C(=O)c2cccc(NC(=O)Nc3ccc(C(F)(F)F)cc3)c2O[C@@H]1CN(C)S(=O)(=O)c1ccc(F)cc1,11[16.7 µM],7
C[C@H]1CN([C@@H](C)CO)C(=O)c2cc(NC(=O)NC3CCCCC3)ccc2O[C@@H]1CN(C)Cc1ccncc1,-3[16.7 µM],7
C[C@H](CO)N1C[C@H](C)[C@@H](CN(C)C(=O)Nc2ccc(F)cc2)Oc2ccc(NC(=O)Cn3cnnn3)cc2C1=O,-9[16.7 µM],-4
O=C(C[C@@H]1CC[C@H](NC(=O)C2CCC2)[C@@H](CO)O1)NC1CCCCC1,-2[16.7 µM],4
COc1ccc(S(=O)(=O)N(C)C[C@@H]2Oc3ccc(NC(=O)C4CC4)cc3CC(=O)N([C@@H](C)CO)C[C@H]2C)cc1,-5[16.7 µM],6

# The closing 2 records of the part before lead into the next:
SMILES,HIV Env fusion,UUG fidelity
O=C(C[C@@H]1CC[C@H](NC(=O)C2CCC2)[C@@H](CO)O1)NC1CCCCC1,-2[16.7 µM],4
COc1ccc(S(=O)(=O)N(C)C[C@@H]2Oc3ccc(NC(=O)C4CC4)cc3CC(=O)N([C@@H](C)CO)C[C@H]2C)cc1,-5[16.7 µM],6
C[C@@H]1CN([C@H](C)CO)C(=O)c2cc(NS(=O)(=O)c3ccc(F)cc3)ccc2O[C@@H](C)CCCCO[C@@H]1CN(C)Cc1ccc2c(c1)OCO2,-11[16.7 µM],24
O=C(Nc1ccccc1F)N[C@@H]1CC[C@@H](CCNC(=O)C2CC2)O[C@@H]1CO,-4[16.7 µM],-3
Cc1noc(C)c1NC(=O)N(C)C[C@H]1Oc2ccc(NC(=O)CCN3CCOCC3)cc2C(=O)N([C@@H](C)CO)C[C@@H]1C,-13[16.7 µM],-11
Cc1noc(C)c1NC(=O)N[C@H]1CC[C@H](CC(=O)Nc2ccccc2)O[C@H]1CO,-12[16.7 µM],-10
CC(=O)N(C)C[C@@H]1Oc2cc(-c3cccc(F)c3)ccc2S(=O)(=O)N([C@H](C)CO)C[C@H]1C,-3[16.7 µM],14
C[C@@H]1CN([C@@H](C)CO)C(=O)c2cc(-c3ccncc3)cnc2O[C@H]1CN(C)S(=O)(=O)c1ccccc1,-24[16.7 µM],12

# Among those listed so far, these have a Cl atom:
SMILES,HIV Env fusion,UUG fidelity
Cc1noc(C)c1NC(=O)Nc1ccc2c(c1)C(=O)N([C@H](C)CO)C[C@H](C)[C@@H](CN(C)Cc1ccc(Cl)c(Cl)c1)OCCCC[C@H](C)O2,14[16.7 µM],7
O=C(Nc1ccc(Cl)cc1)N[C@H]1CC[C@@H](CCn2cc(Cc3ccccc3)nn2)O[C@H]1CO,13[16.7 µM],-7
C[C@@H]1CCCCO[C@@H](CN(C)S(=O)(=O)c2cccs2)[C@H](C)CN([C@H](C)CO)C(=O)c2cc(NS(=O)(=O)c3ccc(Cl)cc3)ccc2O1,-5[16.7 µM],11
C[C@H](CO)N1C[C@H](C)[C@@H](CN(C)S(=O)(=O)c2ccc(Cl)cc2)OCCCC[C@H](C)Oc2ccc(NS(=O)(=O)c3ccc(Cl)cc3)cc2C1=O,-48[16.7 µM],-16
C[C@H](CO)N1C[C@H](C)[C@H](CN(C)C(=O)C2CCCCC2)OCCCC[C@H](C)Oc2ccc(NS(=O)(=O)c3ccc(Cl)cc3)cc2C1=O,-135[16.7 µM],-14
C[C@@H]1CN([C@@H](C)CO)C(=O)c2cccc(NS(=O)(=O)c3ccc(Cl)cc3)c2O[C@@H]1CN(C)S(=O)(=O)c1cn(C)cn1,-17[16.7 µM],-8
C[C@@H]1CN([C@H](C)CO)C(=O)c2cc(NS(=O)(=O)c3ccc(Cl)cc3)ccc2O[C@@H]1CN(C)Cc1ccc(C(F)(F)F)cc1,19[16.7 µM],2
